Assay outcomes: PubChem BioAssay, ICCB-Longwood Screening Facility, Harvard Medical School
GIV Gai3 FP: inhibitors of GIV peptide binding to Galpha-i3, primary screen, biochemical, fluorescence polarization, FITC-GIV GBA peptide, rat Galphai3; Guanine nucleotide-binding protein G(i) subunit alpha-3 (Rattus norvegicus), P08753; 90 min; active compounds read low; scaled: aluminum fluoride 0%, vehicle 100%; percent of control (FP), % (no concentration beside the values); actives 0.42% (n = 210,000); AID 1224905, 2016;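 active = replicate mean at 85% of control or lower, very high polarization wells dropped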;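 also: wells of about 15 µL received 100 nL stock; the first replicate is given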
Target sequence (P08753 whole entry, looked up): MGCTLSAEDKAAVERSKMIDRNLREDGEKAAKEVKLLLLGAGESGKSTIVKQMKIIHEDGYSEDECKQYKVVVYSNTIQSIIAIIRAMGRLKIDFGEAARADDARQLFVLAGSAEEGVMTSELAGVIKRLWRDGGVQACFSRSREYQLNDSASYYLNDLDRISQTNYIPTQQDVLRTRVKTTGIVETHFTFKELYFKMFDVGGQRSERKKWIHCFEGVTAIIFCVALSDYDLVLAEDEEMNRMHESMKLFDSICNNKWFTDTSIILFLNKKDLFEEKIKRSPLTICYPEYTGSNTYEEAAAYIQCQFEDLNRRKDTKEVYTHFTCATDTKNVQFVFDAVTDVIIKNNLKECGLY
Active calls of the source: *. These rows are one share of the data; rates above refer to the full screens.

nr | molecule | GIV Gai3 FP
1 | CCc1ccc(N(C)S(=O)(=O)c2ccc3[nH]cc(C(=O)N4CCC(C)CC4)c(=O)c3c2)cc1 | 107
2 | CN(C)C(=O)C1=CCN(C(=O)NC2CCCC2)CC1 | 105
3 | CC(C)(C)c1ccc(S(=O)(=O)NCc2ccc3c(c2)CCN3C(=O)c2ccc(F)cc2)cc1 | 108
4 | CC1(C)OC(=O)N(CCO)C1(C)O (centres undefined) | 106
5 | O=C(NCCCN1CCCC1=O)C1=C2CCCN2c2ccc(F)cc2S1(=O)=O | 99
6 | CCc1ccccc1S(=O)(=O)Nc1ccc2c(c1)nc(-c1ccc(C(=O)N(CC)CC)cc1)n2C | 104
7 | COc1ccc(-c2cc(C(F)(F)F)n3nc(C(=O)N4CCN(C)CC4)cc3n2)cc1OC | 110
8 | COc1ccc(-c2cn3ccc4ccccc4c3n2)cc1OC | 104
9 | CC1CCN(S(=O)(=O)c2cccc(C(=O)Nc3ccccc3C(=O)Nc3ccc(Cl)cc3)c2)CC1 | 103
10 | O=C(Nc1c2c(nn1-c1ccc(F)cc1)CSC2)c1ccc(Br)cc1 | 101
11 | CCOC(=O)C1=C(N)n2c(s/c(=C\c3ccc(Cl)cc3Cl)c2=O)=C(C#N)C1c1ccc(Cl)cc1Cl (centres undefined) | 116
12 | CCOc1cc(Br)cc(C(c2c(C)n(C)n(-c3ccccc3)c2=O)c2c(C)n(C)n(-c3ccccc3)c2=O)c1O | 104
13 | O=C(Nc1ccc2c(c1)OCO2)C1CCCN(c2ncc(-c3ccc(F)cc3)cn2)C1 (centres undefined) | 100
14 | O=C(CN1C(=O)COc2cc(Cl)ccc21)NC1CC1 | 101
15 | O=C(c1cccc(Br)c1)N1N=C(C(F)(F)F)CC1(O)c1cccnc1 (centres undefined) | 118
16 | O=C(NCc1c(-c2ccccc2)nc2n1CCS2)c1ccc(F)cc1F | 97
17 | CCOC(=O)c1c(NC(=O)c2ccccc2F)sc(C(=O)Nc2ccccc2OCC)c1C | 101
18 | Cc1cccc(-c2noc(-c3cccnc3N3CCC(C(=O)NCc4ccccc4F)CC3)n2)c1 | 102
19 | CC1CCCCN1CCNS(=O)(=O)c1cc(-c2nc(C(C)(C)C)cs2)cs1 (centres undefined) | 107
20 | CCOC(=O)c1c(NC(=S)Nc2ccc(OC)cc2)sc2c1CC(C)(C)OC2 | 109

Later entries:
nr | molecule | GIV Gai3 FP
21 | Clc1ccc(C2N(c3ccccc3)CCN2c2ccccc2)c(Cl)c1 | 104
22 | COC(CNC(=O)c1ccc2c(c1)ncn2-c1ccc(OCc2ccccc2)cc1)OC | 102
23 | Cc1nn(-c2nc3ccc(Br)cc3s2)c2c1C(c1cccc(F)c1F)CC(=O)N2 (centres undefined) | 100
24 | Brc1cncc(-c2nc(-c3cccc(-c4csc(C5CC5)n4)c3)no2)c1 | 102
25 | COC(=O)c1ccc(C2Oc3ccc(Cl)cc3C3CC(c4cccs4)=NN32)cc1 (centres undefined) | 110
26 | COc1ccc(S(=O)(=O)n2c(SCc3cccc(F)c3)nc3ccccc32)cc1 | 111
27 | Cc1nn(-c2ccc3nnc(C)n3n2)c2c1C(c1ccc3c(c1)OCO3)CC(=O)N2 (centres undefined) | 99
28 | O=C(O)CC(CNS(=O)(=O)c1cccc2nsnc12)c1ccccc1 (centres undefined) | 108
29 | CCC(C)NC(=O)CSc1nnc2n(CCC(=O)NCC(C)C)c(=O)c3ccccc3n12 (centres undefined) | 98
30 | O=C(NC1CC1)C1(c2ccccc2F)CC1 | 100
31 | Clc1cc2c(c(Cn3c4ccccc4c4nc5ccccc5nc43)c1)OCOC2 | 111
32 | O=S(=O)(c1cccc2nsnc12)N1CCc2ccccc2C1 | 110
33 | OC1(c2ccccc2)CN(c2ccc(Br)cc2)C2=[N+]1CCCS2 (centres undefined) | 101
34 | CCCCN(CC)S(=O)(=O)c1ccc(F)c(C(=O)Nc2ccc(Br)cc2F)c1 | 117
35 | CCC(=O)Nc1ccc2c(c1)OCCO2 | 108
36 | Cc1nc2c3ccccc3nc(SCC(=O)NCCc3ccc(S(N)(=O)=O)cc3)n2n1 | 106
37 | CCOC(=O)c1ccc(NC(=O)CSc2nc3ccccc3c(=O)n2NC(=O)CCc2c[nH]c3ccccc23)cc1 | 109
38 | COc1cc(/C=c2\sc3nc(=O)c(C)nn3c2=O)ccc1OCCC(C)C | 100
39 | COc1ccc(NC(=O)C2CCC(CNS(=O)(=O)c3cccc4cccnc34)CC2)cc1Cl (centres undefined) | 101
40 | O=C(Nc1cccc(Br)c1)N1CCN(c2cc(-c3ccccc3)ncn2)CC1 | 105

Additional records follow.
nr | molecule | GIV Gai3 FP
41 | COc1ccc(N2CC(C(=O)NCc3nnnn3-c3ccccc3)CC2=O)cc1 (centres undefined) | 101
42 | CCC(C)NC(=O)N1CCNC(=O)C1(C)C (centres undefined) | 101
43 | COc1cc(OC)cc(-c2nc3c4ccccc4n(CC(=O)c4c[nH]c5ccc(OC)cc45)c(=O)n3n2)c1 | 104
44 | CCOc1ccc(-c2noc(Cn3nc4ccc(-c5ccc(C)cc5)nn4c3=O)n2)cc1OC | 109
45 | O=C(COc1ccc(Cl)cc1)N1CCN(C(=O)c2cc3ccccc3[nH]2)CC1 | 93
46 | O=S(=O)(c1ccccc1Br)N1CCCC1c1nc(-c2ccc(F)cc2)no1 (centres undefined) | 100
47 | Cc1ccc(-c2nc(Cn3nnc(-c4nc(-c5ccc6c(c5)OCO6)no4)c3C)c(C)o2)cc1 | 106
48 | O=C1c2ccccc2NC(c2ccc(OCc3ccccc3)cc2)N1c1ccc(Br)cc1 (centres undefined) | 103
49 | O=C(CSc1nc2ccccc2nc1Cc1cccc([N+](=O)[O-])c1)Nc1ccc(F)c(Cl)c1 | 110
50 | CC1=C(C(=O)OCC(C)C)C(c2coc3ccc(C)cc3c2=O)C2=C(CC(c3cccs3)CC2=O)N1 (centres undefined) | 102
51 | Cc1cc(SCC(=O)Nc2cccc(Cl)c2)nc2ccc(S(=O)(=O)N3CCCC3)cc12 | 103
52 | Cc1nc(CNC(=O)[C@H]2CSCN2S(=O)(=O)c2cccc(F)c2)cs1 | 103
53 | CCOC(=O)N1CCC(Nc2ncnc3c2c(-c2ccccc2)cn3-c2ccc(Br)cc2)CC1 | 117
54 | COc1ccc(C2/C(=C(\O)c3ccc(C)cc3)C(=O)C(=O)N2c2nncs2)cc1 (centres undefined) | 113
55 | Cc1ccc2c(c1)[C@H]1OCC[C@H]1C(c1cc(O)ccc1Br)N2 (some centres undefined) | 103
56 | COCCNC(=O)N1CCC2(CC1)Nc1ccccc1-n1cccc12 | 108
57 | Cc1nc(S(=O)(=O)N2C[C@H]3CN(S(=O)(=O)c4ccccc4)C[C@@H](C2)O3)cn1C | 114
58 | CCOC(=O)CSCC(=O)N1c2ccccc2-c2c(ssc2=S)C1(C)C | 112
59 | Cc1ccc(C)c(Cn2nc3c(S(=O)(=O)N4CCOCC4)cccn3c2=O)c1 | 100
60 | C=CCOC(=O)C1=C(C)NC(=O)NC1c1cn(-c2ccccc2)nc1-c1cccs1 (centres undefined) | 105

Remaining list, next part.
nr | molecule | GIV Gai3 FP
61 | CCOC(=O)c1ccc(NC(=O)Nc2ccc(Sc3cc(C)nc4ncnn34)cc2)cc1 | 103
62 | CCOC(=O)c1ccc(-n2c(=S)[nH]c3c(sc(=S)n3-c3cccc(OC)c3)c2=O)cc1 | 110
63 | O=C(c1cc2c(s1)CN(C1CC1)C2)N1CCN(C2CCCCC2)CC1 | 100
64 | COc1ccc(NC(=O)CCc2c(C)nn(-c3ccc4nncn4n3)c2C)c(OC)c1 | 103
65 | COc1ccc(C2(O)CN(c3ccccc3C)C3=[N+]2CCCS3)c(F)c1 (centres undefined) | 101
66 | COc1cccc(-c2csc(Nc3ccc(Br)cn3)n2)c1 | 99
67 | COC(=O)c1ccc(NC(=O)c2ccc(=O)n(Cc3c(F)cccc3Cl)c2)cc1 | 107
68 | O=C(Cn1c(=O)n(C2CC2)c(=O)c2nscc21)NC1CCCCC1 | 107
69 | CC(C)(C)NC(=O)c1cccc(-c2cc(N3CCCC3)ncn2)c1 | 103
70 | CCOc1ccc(C2Nc3ccc(Br)cc3[C@H]3OCC[C@@H]23)cc1 (some centres undefined) | 102
71 | O=C(Cn1nc(C(=O)Nc2ccccc2)ccc1=O)NCc1ccccc1 | 101
72 | COC(=O)c1ccc2c(=O)n(Cc3ccccc3)c(N3CCOCC3)nc2c1 | 106
73 | COc1ccc(S(=O)(=O)NC2CCN(C(=O)c3ccccc3OC)CC2)cc1 | 97
74 | COc1ccccc1NC(=O)c1sc(=S)n(-c2cc(C)ccc2F)c1N | 114
75 | CC1CCCCN1Cc1nc(Cn2ccn3nc(-c4cccs4)cc3c2=O)no1 (centres undefined) | 106
76 | COC(=O)c1ccc2c(=O)n(Cc3ccc(OC)cc3)c(N3CCOCC3)nc2c1 | 108
77 | O=C(O)c1cccc(N=CC23c4ccccc4C(c4ccccc42)C2C(=O)N(c4cccc5ccccc45)C(=O)C23)c1 (centres undefined) | 106
78 | CC1=C(c2ccc(C)c(C)c2)S(=O)(=O)N=C1N1CCCN(C(=O)C(C)(C)C)CC1 | 103
79 | O=C1NC(c2cc(Br)ccc2O)Nc2sc3c(c21)CCCC3 (centres undefined) | 107
80 | COc1cc(/C=C2\N=C(c3ccccc3)N(c3ccc(Cl)cc3C)C2=O)cc(OC)c1OC | 121

Next entries
nr | molecule | GIV Gai3 FP
81 | CC(=O)N1CCc2cc(N3CC(C(=O)Nc4ccc(N5CCOCC5)cc4)CC3=O)ccc21 (centres undefined) | 102
82 | CCCc1oc2ccc(NS(=O)(=O)c3cc(Cl)ccc3Cl)cc2c1C(=O)OCC | 103
83 | CCCn1cnc2cc(-c3noc(/C=C/c4ccc(OC)c(OC)c4)n3)ccc21 | 104
84 | CC(C)Sc1nc2c(c(=O)n1C1CCOC(C)(C)C1)C1(CCCCC1)Cc1ccccc1-2 (centres undefined) | 106
85 | CCOC(CNC(=O)c1sc2ncn(CC(=O)Nc3cccc(C(F)(F)F)c3)c(=O)c2c1C)OCC | 104
86 | O=C(C1CCCCC1)N1CCN(Cc2noc(-c3ccccc3)n2)CC1 | 102
87 | CCOC(=O)C1CCC(CNC(=O)N2CCCC2c2c(C)noc2C)CC1 (centres undefined) | 107
88 | COc1cc(-n2c(C)nc3cc(C(=O)NC4CCCCC4C)ccc32)cc(OC)c1OC (centres undefined) | 107
89 | O=c1ccn(-c2ccccc2)nc1-c1nc(-c2ccncc2)no1 | 99
90 | Cc1ccc(-c2ccc(N3CCCC3)nn2)cc1S(=O)(=O)N1CCCCC1 | 105
91 | Cc1cccc(N2CCN(CC(O)c3ccc4c(c3)OCO4)CC2)c1C (centres undefined) | 103
92 | O=C(Nc1cccc(-c2cc3cc(F)ccc3[nH]2)c1)c1cnccn1 | 102
93 | Cc1ccc(-c2ccc(NCC3CCCO3)nn2)cc1S(=O)(=O)N1CCCCC1 (centres undefined) | 112
94 | COc1ccc(-c2noc(COc3ccc(Cl)cc3Cl)n2)cc1OC | 121
95 | Cc1onc(-c2ccccc2Cl)c1C(=O)Nc1nnc(SCC(=O)NCC2CCCO2)s1 (centres undefined) | 104
96 | Cc1ccc(O)c(C2=Nc3ccccc3N=C(c3ccc(C(C)(C)C)cc3)C2)c1 | 104
97 | O=C(Nc1ccc(N2S(=O)(=O)c3ccccc3S2(=O)=O)cc1)c1cccc(C(F)(F)F)c1 | 101
98 | CC(C)Cc1ccc(S(=O)(=O)N2CCN(Cc3nc4cc(C(=O)N(C)C)ccc4n3C)CC2)cc1 | 103
99 | COc1ccc(C2C(N3C(=O)c4c(Cl)c(Cl)c(Cl)c(Cl)c4C3=O)C(=O)N2c2ccc(Cl)c(Cl)c2)cc1Br (centres undefined) | 104
100 | CS(=O)(=O)N1CCCN(Cc2cccs2)CC1 | 105

The list goes on.
nr | molecule | GIV Gai3 FP
101 | Cc1ccc(S(=O)(=O)NCCC(=O)N2CCCC2c2nc(-c3ccc(Cl)cc3)no2)cc1 (centres undefined) | 94
102 | O=C(OCCN(C1=NS(=O)(=O)c2ccccc21)c1ccccc1Cl)C1CC(=O)N(c2ccccc2)C1 (centres undefined) | 108
103 | O=C(NC1CCCC1)C1CCCN(c2ncc(-c3ccc(F)cc3)cn2)C1 (centres undefined) | 101
104 | O=C1CN(C(=O)c2cc([N+](=O)[O-])ccc2Cl)c2ccccc2N1 | 109
105 | CCOC(=O)C1=C(C)NC2=C(C(=O)C(C(=O)OCC)C(c3ccc(OC)cc3)C2)C1c1ccccc1Cl (centres undefined) | 101
106 | COc1cc(NC(=O)Cn2cnc3nc(N4CCCC4)ncc3c2=O)cc(OC)c1 | 102
107 | O=c1[nH]c2ccc(S(=O)(=O)Nc3ccc(F)c(F)c3)cc2[nH]1 | 101
108 | CCCN1C(=O)c2cc(S(=O)(=O)N3CCCCC3C)ccc2Oc2cccnc21 (centres undefined) | 104
109 | COc1ccc2c(c1)-c1c(ssc1=S)C(C)(C)N2C(=O)c1ccccc1 | 106
110 | O=[N+]([O-])c1ccc(-c2nc(-c3ccc(-c4nc(-c5ccc([N+](=O)[O-])cc5)c(-c5ccccc5)[nH]4)cc3)[nH]c2-c2ccccc2)cc1 | 113
